TRPC4 agonist = opens the mouse TRPC4 cation channel; Q9QUQ5; HEK293 TRPC4beta/mu-opioid, Fluo4 calcium fluorescence; active compounds read high; B-score at 10 µM; 0.49% of 310,000 active;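 active means B-score above 5 SD of library B-scores, and initial fluorescence ratio not above library mean plus 5 SD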;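 further: positive B-score marks a calcium rise read as TRPC4 activation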
Target sequence (Q9QUQ5 whole entry, looked up): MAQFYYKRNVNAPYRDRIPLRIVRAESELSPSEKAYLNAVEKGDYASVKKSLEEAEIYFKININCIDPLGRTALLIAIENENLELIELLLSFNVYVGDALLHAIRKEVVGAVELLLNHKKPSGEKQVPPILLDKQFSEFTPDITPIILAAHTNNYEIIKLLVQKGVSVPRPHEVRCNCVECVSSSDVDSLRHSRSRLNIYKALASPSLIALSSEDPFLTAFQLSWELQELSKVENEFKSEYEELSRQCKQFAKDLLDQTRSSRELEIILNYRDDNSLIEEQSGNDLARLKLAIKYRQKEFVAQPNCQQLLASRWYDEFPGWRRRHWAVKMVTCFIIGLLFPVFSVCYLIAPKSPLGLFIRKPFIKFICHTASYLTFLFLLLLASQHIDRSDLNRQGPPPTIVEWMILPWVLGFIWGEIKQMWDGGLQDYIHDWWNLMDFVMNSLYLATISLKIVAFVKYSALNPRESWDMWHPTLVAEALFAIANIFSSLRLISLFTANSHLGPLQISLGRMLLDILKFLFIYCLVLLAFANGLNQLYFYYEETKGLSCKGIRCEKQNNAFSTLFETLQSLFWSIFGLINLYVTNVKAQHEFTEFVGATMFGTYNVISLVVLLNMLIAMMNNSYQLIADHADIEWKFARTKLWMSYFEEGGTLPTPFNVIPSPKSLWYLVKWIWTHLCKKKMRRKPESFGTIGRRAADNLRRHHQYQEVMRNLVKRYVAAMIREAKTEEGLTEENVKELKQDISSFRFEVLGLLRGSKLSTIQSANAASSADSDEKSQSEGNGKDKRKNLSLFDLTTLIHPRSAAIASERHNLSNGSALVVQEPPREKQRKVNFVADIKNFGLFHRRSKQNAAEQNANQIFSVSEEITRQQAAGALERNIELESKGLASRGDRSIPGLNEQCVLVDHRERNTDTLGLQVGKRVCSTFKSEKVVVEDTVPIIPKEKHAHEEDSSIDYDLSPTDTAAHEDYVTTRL
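Test system: HEK293 cells stably co-expressing mouse TRPC4beta and mu-opioid receptor | Schedule: Fluo4 dye loading 45 min at room temperature, 110 s recording | Measured by: Kinetic Fluo4 calcium fluorescence, 5 s baseline at 1 Hz | Evaluation: B score of integrated ratio | Controls: Buffer (low) and maximal DAMGO (high)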
TMEM16A act = activators or potentiators of mouse TMEM16A chloride channel | AID 623877 | Q8BHY3 | 0.3% of 340,000 active | B-score at 10 µM | HEK293 TMEM16A/YFP-H148Q/I152L, iodide quench fluorescence; active compounds read low;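 active means fluorescence-ratio B-score plate-corrected deviation score at least 3 library SD below zero, with starting fluorescence score within 5 deviations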;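 further: channel opened by trigger with iodide after compound preincubation; score built on the fluorescence ratio of max minus min over baseline; more negative score means more quench and so TMEM16A activation or potentiation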
KCNQ1 act = potentiators or activators of human KCNQ1 potassium channel; P51787; CHO-K1 KCNQ1, thallium flux FluxOR fluorescence; active compounds read high; B-score at 10 µM; 0.35% of 310,000 active; AID 2648;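 active means fluorescence ratio B-score, a plate-corrected score, at least three library SD, with initial intensity B-score within 5 SD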
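assay system = CHO-K1 cells stably expressing KCNQ1 | medium = assay buffer, equal DMSO in all wells | timing = 37 °C overnight plating, 90-min dark dye load, 20-min compound pretreatment | measured by = kinetic FluxOR thallium fluorescence, 10-s 1-Hz baseline, 110-s post-stimulus read | measure = fluorescence change relative to baseline, converted to B score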
ANO1 block = mouse TMEM16A channel inhibition, primary screen; Q8BHY3; 1.2% of 310,000 active; normalized B-score (activity score, 25-100; higher = stronger inhibition) at 10 µM; HEK293 TMEM16A/YFP iodide influx fluorescence, ionomycin;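 active means ratio plate-corrected score three or more library SD toward inhibition, starting fluorescence score within five deviations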;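 further: score derived from kinetic fluorescence span divided by baseline fluorescence per well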
DYRK1A inh = blocks rat Dyrk1A kinase activity | Q63470 | ADP-Glo luminescence, NFATc1 peptide | inhibition, % at 12.5 µM | 0.43% of 310,000 active | AID 504441; in the data active means inhibition above about 50%;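 further: plate controls were vehicle with enzyme for no effect and no enzyme for full effect; many of its hits are not listed in these tables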
KCNQ1 inh = blocks the human KCNQ1 potassium channel | CHO-K1 KCNQ1, FluxOR thallium flux fluorescence; active compounds read high | B-score at 10 µM | 1.3% of 310,000 active | P51787;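 active means compounds whose thallium flux B-score, printed positive for inhibition, exceeds three library SD while starting fluorescence stays within three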;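 further: channel opened by potassium depolarization with thallium stimulus after 20 min compound exposure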
KCNK9 block = human KCNK9 channel inhibition | AID 488922 | 1.2% of 310,000 active | Q9NPC2 | B-score at 10 µM | HEK293 KCNK9, FluxOR thallium flux fluorescence; active compounds read low;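 active means ratio B-score over 3 SD below the library mean, with starting fluorescence within 5 SD of its mean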;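 further: negative B-score means less thallium flux so channel inhibition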
KCNK3 block = human KCNK3 channel inhibition, primary screen; O14649; CHO-KCNK3 thallium flux, FluxOR fluorescence; active compounds read low; 0.84% of 340,000 active; B-score at 10 µM;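 active means B-score under library mean minus 4 SD, starting fluorescence ratio at most library mean plus 5 SD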;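 further: more negative B-score means stronger inhibition of thallium flux through KCNK3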
TRPC4 potent = allosteric potentiators of mouse TRPC4 channel; HEK293 TRPC4beta/mu-opioid, DAMGO EC20, Fluo-4 Ca2+ flux; active compounds read high; B-score at 10 µM; 0.42% of 310,000 active;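 active means B-score of calcium response area above 5 SD of library B-scores, with initial fluorescence ratio within 5 SD of library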;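 further: B-score of integrated fluorescence ratio over time as area under calcium response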
HDAC3 inh = human HDAC3 inhibition | 0.15% of 320,000 active | recombinant HDAC3, fluorogenic peptide/trypsin coupled, fluorescence | inhibition, % at 8.3 µM | O15379; in the data active means inhibition above about 26%, passing the limit was not always enough
An asterisk follows results filed as active; i = inactive; · = not tested or not shown; & = joins results of further samples. Some of the compounds tested. The share of hits here may be higher or lower than overall.

Screens by letter: A = TRPC4 agonist; B = TMEM16A act; C = KCNQ1 act; D = ANO1 block; E = DYRK1A inh; F = KCNQ1 inh; G = KCNK9 block; H = KCNK3 block; I = TRPC4 potent; J = HDAC3 inh
[1] Cc1ccccc1CS(=O)(=O)Cc1ccc(C(=O)NCCCN2CCOCC2)o1
  A = i | B = i | C = i | D = i | E = · | F = i | G = i | H = i | I = i | J = -6

[2] CC(COc1ccccc1)N(CCCl)Cc1ccccc1 (centres undefined)
  A = i | B = i | C = i | D = i | E = 7 | F = i | G = i | H = i | I = i | J = -1

[3] CCN(CC)CCOc1ccc(/C(=C(/Cl)c2ccccc2)c2ccccc2)cc1
  A = i | B = i | C = i | D = i | E = 4&-8 | F = 8* | G = i | H = i | I = i | J = -4&2

[4] O=C(CSCc1ccc(F)cc1)N1CCN(c2ccccc2)CC1
  A = i | B = i | C = i | D = i | E = 6 | F = i | G = i | H = i | I = i | J = 9

[5] COc1ccc(CNC(=O)C(c2ccc(O)cc2)N(Cc2ccco2)C(=O)c2snc(C(N)=O)c2N)cc1 (centres undefined)
  A = i | B = i | C = i | D = i | E = -9 | F = i | G = i | H = i | I = i | J = -6

[6] Cc1cnc(NC(=O)C2C(=O)c3ccccc3S(=O)(=O)N2C)s1 (centres undefined)
  A = · | B = i | C = · | D = · | E = 1 | F = · | G = · | H = i | I = · | J = ·

[7] Cc1ccc(S(=O)(=O)NC(=O)NN2CCCCCC2)cc1
  A = i | B = i | C = i | D = i | E = 3 | F = i | G = i | H = i | I = i | J = 0

[8] CC1(C)S[C@@H]2[C@H](NC(=O)[C@H](N)c3ccccc3)C(=O)N2[C@H]1C(=O)O
  A = i | B = i | C = i | D = i | E = -2&-2 | F = i | G = i | H = i | I = i | J = 1&-5

[9] C[C@@H]1C[C@H]2[C@@H]3C[C@H](F)C4=CC(=O)C=C[C@]4(C)[C@@]3(F)[C@@H](O)C[C@]2(C)[C@@]1(O)C(=O)CO
  A = i | B = i | C = i | D = i | E = 4 | F = i | G = i | H = i | I = i | J = -3

[10] Cc1cc2c(c(SCC#N)n1)C(=O)OC2
  A = i | B = i | C = i | D = i | E = -1 | F = i | G = i | H = i | I = i | J = -1

[11] O=C(O)C1CC=CCC1C(=O)NCc1cn2ccccc2n1 (centres undefined)
  A = i | B = i | C = i | D = i | E = 5 | F = i | G = i | H = i | I = i | J = -14

[12] CC(=O)O[C@H]1CC[C@]2(C)[C@H]3CC=C4[C@@H]5[C@@H](C)[C@H](C)CC[C@]5(C(=O)O)CC[C@@]4(C)[C@]3(C)CC[C@H]2C1(C)C
  A = i | B = · | C = i | D = i | E = · | F = i | G = i | H = · | I = i | J = -7

[13] COC(=O)COc1ccc2cc(-c3ccc(OC)cc3)c(=O)oc2c1
  A = i | B = i | C = i | D = i | E = 3 | F = i | G = i | H = i | I = i | J = -2

[14] N=C(N)c1ccc(OCCCCCOc2ccc(C(=N)N)cc2)cc1
  A = i | B = i | C = i | D = i | E = 8 | F = i | G = i | H = i | I = i | J = 61*

[15] CCOC(=O)C1=C(C)N(Cc2ccccc2)C(=O)NC1c1ccc(OC)cc1 (centres undefined)
  A = i | B = i | C = i | D = i | E = 22 | F = i | G = i | H = i | I = i | J = 6

[16] CCOC(=O)c1n[nH]c2ccccc12
  A = i | B = i | C = i | D = i | E = 2 | F = i | G = i | H = i | I = i | J = -4

[17] CC(C)NCC(O)COc1cccc2ccccc12 (centres undefined)
  A = i | B = i | C = i | D = i | E = 4 | F = i | G = i | H = i | I = i | J = -11

[18] COC(=O)NNC(=S)NCc1ccc(C)cc1
  A = i | B = i | C = i | D = i | E = -1 | F = i | G = i | H = i | I = i | J = -2

[19] Clc1ccc2c(c1)CCc1cccnc1C2=C1CCNCC1
  A = i | B = · | C = i | D = i | E = · | F = i | G = i | H = · | I = i | J = ·

[20] CCCC(=O)Nc1ccc(OCC(O)CNC(C)C)c(C(C)=O)c1 (centres undefined)
  A = i | B = i | C = 9* | D = i | E = 6 | F = i | G = i | H = i | I = i | J = -2

[21] N#CCOc1ccccc1P(=O)(c1ccccc1)c1ccccc1
  A = i | B = i | C = i | D = i | E = 6 | F = i | G = i | H = i | I = i | J = 4

[22] CCOC(=O)/C(C#N)=C\C1=C(N2CCCC2)CC(C)(CC)OC1 (centres undefined)
  A = i | B = i | C = i | D = i | E = 14 | F = i | G = i | H = i | I = i | J = -2

[23] CCCOc1ccc(CNC(=O)C2CCN(c3nnc(N4CCCC4=O)s3)CC2)cc1
  A = i | B = i | C = i | D = i | E = 6 | F = i | G = i | H = i | I = i | J = 0

[24] NCCS(=O)(=O)O
  A = i | B = i | C = i | D = i | E = -2 | F = i | G = i | H = i | I = i | J = 0

[25] CC(=O)O[C@H]1C(=O)[C@@]2(C)[C@H]([C@H](OC(=O)c3ccccc3)[C@]3(O)C[C@H](OC(=O)[C@H](O)C(NC(=O)c4ccccc4)c4ccccc4)C(C)=C1C3(C)C)[C@]1(OC(C)=O)CO[C@@H]1C[C@@H]2O (some centres undefined)
  A = i | B = i | C = i | D = i | E = 5 | F = i | G = i | H = i | I = i | J = 0

[26] COc1ccc(OC2C(=O)N(CCc3ccc(OC)c(OC)c3)C2c2ccc3c(c2)OCO3)cc1 (centres undefined)
  A = i | B = i | C = i | D = i | E = 6 | F = i | G = i | H = i | I = i | J = 5

[27] COc1ccccc1OCC(O)CN1CCN(CC(=O)Nc2c(C)cccc2C)CC1 (centres undefined)
  A = i | B = i | C = i | D = i | E = -8&10 | F = i | G = i | H = i | I = i | J = -2&-9

[28] Nc1ccn([C@@H]2O[C@H](CO)[C@@H](O)C2O)c(=O)n1 (some centres undefined)
  A = i | B = i | C = i | D = i | E = 7 | F = i | G = i | H = i | I = i | J = -11

[29] Cc1ccc(S(=O)(=O)N[C@H](C(=O)N2CCC(C(=O)N3CCC[C@H]3C(=O)O)CC2)C(C)C)cc1
  A = i | B = i | C = i | D = · | E = 13 | F = i | G = i | H = i | I = i | J = ·

[30] CCOc1ccc(CC(=O)Nc2c3c(nn2C(C)(C)C)CS(=O)(=O)C3)cc1
  A = i | B = i | C = i | D = i | E = · | F = i | G = i | H = i | I = i | J = -5

[31] CCCCNC(=O)NS(=O)(=O)c1ccc(C)cc1
  A = i | B = i | C = i | D = i | E = -1 | F = i | G = i | H = i | I = i | J = -1

[32] Cc1[nH]c(=O)c(C#N)cc1-c1ccncc1
  A = i | B = i | C = i | D = i | E = 15 | F = i | G = i | H = i | I = i | J = 3

[33] COc1ccccc1C(=O)Nc1ccnn1C1CCN(Cc2cc(C)c(C)cc2C)CC1
  A = i | B = i | C = i | D = i | E = 3 | F = i | G = i | H = i | I = i | J = 2

[34] Cc1nnsc1C(=O)N/N=C/c1ccccc1Cl
  A = i | B = i | C = i | D = i | E = -1 | F = i | G = i | H = i | I = i | J = -3

[35] OCCN1CCN(CC/C=C2/c3ccccc3Sc3ccc(C(F)(F)F)cc32)CC1
  A = i | B = i | C = i | D = i | E = 3 | F = i | G = i | H = i | I = i | J = 6

[36] O=C(Nc1ccsc1C(=O)NC1CC1)c1ccccc1
  A = i | B = i | C = i | D = i | E = 35 | F = i | G = i | H = i | I = i | J = -11

[37] Cc1cc(C)cc(C(=O)Nn2cnnc2)c1
  A = i | B = i | C = i | D = i | E = 9 | F = i | G = i | H = i | I = i | J = 1

Fetched one by one from the list above, 5 records:
Screens by letter: A = TRPC4 agonist; B = TMEM16A act; C = KCNQ1 act; D = ANO1 block; E = DYRK1A inh; F = KCNQ1 inh; G = KCNK9 block; H = KCNK3 block; I = TRPC4 potent; J = HDAC3 inh
[36] O=C(Nc1ccsc1C(=O)NC1CC1)c1ccccc1
  A = i | B = i | C = i | D = i | E = 35 | F = i | G = i | H = i | I = i | J = -11

[34] Cc1nnsc1C(=O)N/N=C/c1ccccc1Cl
  A = i | B = i | C = i | D = i | E = -1 | F = i | G = i | H = i | I = i | J = -3

[26] COc1ccc(OC2C(=O)N(CCc3ccc(OC)c(OC)c3)C2c2ccc3c(c2)OCO3)cc1 (centres undefined)
  A = i | B = i | C = i | D = i | E = 6 | F = i | G = i | H = i | I = i | J = 5

[31] CCCCNC(=O)NS(=O)(=O)c1ccc(C)cc1
  A = i | B = i | C = i | D = i | E = -1 | F = i | G = i | H = i | I = i | J = -1

[30] CCOc1ccc(CC(=O)Nc2c3c(nn2C(C)(C)C)CS(=O)(=O)C3)cc1
  A = i | B = i | C = i | D = i | E = · | F = i | G = i | H = i | I = i | J = -5

Screening data: PubChem, several laboratories
